Screening results deposited in PubChem by National Center for Advancing Translational Sciences (NCATS).
TSHR antagonist: blocks TSH signaling through the human TSH receptor; TSHR-expressing cells, TSH-stimulated cAMP HTRF, 2 h; stronger effect = lower value; activity change, negative = inhibition, % at 11.5 µM; P16473; 0.2% of 330,000 active;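 active = activity change below a set negative limit, meaning inhibition stronger than a set level, cut at about -70% in these data; inconclusive = activity change between two set negative limits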; also: % is scaled to controls: 0 for no effect and ±100 for the full control effect
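TSHR-expressing cells were treated with compounds, then stimulated with TSH at EC80 (4nM final) for 2 hours at 37 deg C. Cellular cAMP was measured by HTRF competition between lysate cAMP and cAMP-d2 for a cryptate-labelled anti-cAMP antibody.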
TCR activator: activators of T cell receptors | primary human leukocytes, anti-CD3, IL-2 HTRF, 48 h | Potency, µM (titrated, usually from 9.22 µM), for the others: top-dose activation of IL-2 secretion, actives largely listed as activators | 330,000 tested, under 10 active | AID 504894; also: % of control where 0% means no effect
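Primary human leukocytes incubated 48 hr with anti-CD3 beads plus compound, without co-stimulation. Secreted IL-2 measured by HTRF (europium cryptate/d2 anti-IL-2 pair, 320 nm excitation, 665 nm emission).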
MLL CXXC-DNA inh: MLL CXXC-DNA interaction inhibition. MLL-CXXC / FITC-HOXA9 DNA fluorescence polarization. Potency, µM (series often up to 115 µM), without a hit: at the top dose activity change, negative = inhibition, hits mostly inhibitors. 0.037% of 290,000 active. AID 2662; active = well fitted inhibition curve with a large enough effect in the polarisation, with a control signal flat, not every such curve was filed as active; inconclusive = small, poorly fitted or top-dose-only effect, or effect the other way, or a change in a side signal; inactive = no such curve, though single readings can be large or run the other way; the % refers to the polarisation; also: potency is read from the fitted curve at half-maximal effect
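Steps: dispense CXXC domain solution (7 uM) → pin compounds or unlabeled HOX-A9 DNA control → 5 min ambient → add FLSN-HOX-A9 solution (50 nM) → spin → 30 min ambient → fluorescence polarization. Tris pH 7.5/NaCl/DTT/BSA buffer.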
Coupling enz: inhibits coupling enzyme system, counter-screen for aldolase hits; activity change, negative = inhibition, % at 58.2 µM, hits read low; coupling enzyme system counterscreen, AmpLite Red fluorescence; 0.67% of 290,000 active; AID 2472; in the data active = activity change below about -30%; also: % is scaled to controls: 0 for no effect and ±100 for the full control effect
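Counterscreen of the coupled detection system alone, without aldolase: glyceraldehyde-3-phosphate coupling enzymes plus AmpLite Red readout. Compounds at 57.5 uM final, 10 min RT preincubation, 20 min RT reaction, fluorescence 525/598 nm.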
Chronic BCR inh: blocks chronic active B-cell receptor signaling; ABC-DLBCL IkBa-CBG/CBR reporter, luminescence ratio, 4 h; Potency, µM (doses to about 46.1 µM), for the others: top-dose ratio change, negative = lower green/red ratio, most hits filed as inhibitors; 0.05% of 340,000 active; active = well fitted inhibition curve with a large enough effect in the signal ratio, with a control signal flat, not every such curve was filed as active; inconclusive = small, poorly fitted or top-dose-only effect, or effect the other way, or a change in a side signal; the % refers to the signal ratio;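 also: potency is read from the fitted curve at half-maximal effect; plate controls were basal doxycycline-induced cells for no effect and cells given 10 µM MG132 for full effect; MG132 reads +100%, hits lower the ratio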
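Cell line TMD8 (human ABC DLBCL), stably expressing tet-inducible CBG68-IkBa fusion and CBR; IMDM/0.5% FBS; cpd up to 46 uM; dox induction, 4 h, 37C/5% CO2; dual luminescence; green/red ratio; MG132 control.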
Giardia kill: kills Giardia lamblia. Giardia lamblia trophozoite viability. activity change, % at 7.66 µM, hits read low. AID 540267. 0.15% of 340,000 active; in the data active = activity change below about -80%; inconclusive = between about -30% and that limit;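 also: parasites exposed to compound for two days anaerobically before the ATP read; % is scaled to controls: 0 for no effect and ±100 for the full control effect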
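Killing of trophozoites was scored by loss of ATP luminescence after a 48 hrs anaerobic exposure to compounds at 37 deg C, using 100 cells per well.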
Tb PFK block: T. brucei PFK enzyme inhibition; 0.17% of 330,000 active; AID 485367; T. brucei PFK, ADP-Glo luminescence; Potency, µM (doses to about 57.5 µM), for inactives: top-dose activity, negative = inhibition, hits mostly inhibitors;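 also: potency is read from the fitted curve at half-maximal effect; 0% = uninhibited 1x PFK enzyme wells and -100% = no-enzyme wells; nearly all actives have a fitted effect of over 60% in size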
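Luminescent ADP detection (ADP-Glo, two-step: ATP depletion then ADP-to-ATP conversion for luciferase) reported PFK activity after 45 min room-temperature reaction of 1.25 nM enzyme with 0.5 mM F6P and 0.1 mM ATP at pH 8.0.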
GALK inhibitor: inhibitors of human galactokinase. P51570. Purified GALK, Kinase-Glo residual ATP luminescence. Potency, µM (doses to about 57.5 µM), inactives show at the top dose activity change, negative = inhibition, usual class: inhibitors. 0.007% of 270,000 active. AID 1868; also: potency is read from the fitted curve at half-maximal effect; % is scaled to controls: 0 for no effect and ±100 for the full control effect
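GALK at 5 nM final was combined with compound, 35 uM ATP and 100 uM galactose in HEPES pH8.0 with MgCl2 and DTT. The reaction ran one hour at room temperature before luminescent ATP detection.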
A-T KAP1 phos: candidate therapy for ataxia-telangiectasia | […] A-T fibroblasts, KAP-1 phosphorylation AlphaLISA; neocarzinostatin DNA damage 30 min before lysis | Potency, µM (doses to about 57.5 µM), for the others: at the top dose activation, usual class: activators | 0.19% of 320,000 active | AID 485349; also: potency is read from the fitted curve at half-maximal effect; % of control where 0% means no effect; nearly all actives have a fitted effect of over 45% in size
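ATM-like activity read as KAP-1 phosphorylation via AlphaLISA donor/acceptor antibody pairs after lysis and 6 hr at 25C. Cells were ATM-null patient fibroblasts ([…], hTERT), dosed 60 min, then exposed to the DSB inducer NCS for 30 min.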
* = called active by the depositor; ? = inconclusive; . = not tested or not shown; & = joins results of further samples; [ ] = another dose, or the depositor's remark. Unless noted, calls follow the shape of the dose curve; as a rule, active = well fitted curve in the direction sought with a large enough effect; inconclusive = small, poorly fitted or top-dose-only effect, or another doubt; inactive = no such curve, though single readings can be large; an effect the other way counts as inactive or inconclusive. This is a subset; count on the stated rates, not on these rows.

Values run as follows: TSHR antagonist	TCR activator	MLL CXXC-DNA inh	Coupling enz	Chronic BCR inh	Giardia kill	Tb PFK block	GALK inhibitor	A-T KAP1 phos
> Cc1ccc(-c2nc3c(cnn3-c3ccccc3)c(=O)o2)cc1
→ -6	-2%	-13%	-1	-1%	10	0%	-3%	5%
> O=C(COc1ccccc1)NNC(=O)COc1ccc([N+](=O)[O-])cc1
→ -5	-3%	4%	0	?	3	-14%	-1%	-1%
> CC(=O)Nc1cccc(NC(=O)CSc2nnc(Cc3cccn3C)n2-c2ccc(F)cc2)c1
→ 6	-4%	-11%	-1	1%	6	-1%	3%	13%
> COc1cc(/C=C/C(=O)CC(=O)/C=C/c2ccc(O)c(OC)c2)ccc1O
→ 13	-15%	?	-6&-10&0	?	49[activator]	-5%	-2%	-25%
> CCSc1nnc(NC(=O)CSc2nnc(Cc3cccn3C)n2-c2ccc(C)cc2)s1
→ -2	.	8%	7	?	-5	0%	1%	1%
> CSc1ccc(S(=O)(=O)NCc2ccccc2Cl)cc1
→ 0	2%	0%	-1	5%	16	-14%	0%	5%
> O=C(CCNC(=O)c1ccccc1Cl)NN=Cc1ccco1
→ 2	-1%	.	.	0%	-3	-26%	.	10%
> CCN1CCC2(CC1)Oc1c(OC)cccc1C1CC(c3cccnc3)=NN12 (stereo not given)
→ -1	-8%	-10%	-1	?	2	0%	-2%	9%
> CN1C(=O)CC(Sc2ccccc2C(=O)O)C1=O (stereo not given)
→ 52	3%	-3%	3	0%	10	2%	-4%	-11%
> O=C1NCCN1c1ncc([N+](=O)[O-])s1
→ -13	-1%	-4%[51.4 µM]	2	9%	-88*	-13%	.	-6%
> COc1ccc(Oc2nc3c(c(=O)n(C)c(=O)n3C)n2Cc2ccccc2)cc1
→ 4	-1%	-2%	1	-11%	-5	2%	2%	.
> CC(C)(Sc1cc(C(C)(C)C)c(O)c(C(C)(C)C)c1)Sc1cc(C(C)(C)C)c(O)c(C(C)(C)C)c1
→ 10	2%	6%	1&3&-2&0	0%	0	1%	7%	7%
> C#C[C@]1(O)CCC2C3CCC4=CC(=O)CCC4C3CC[C@@]21C (stereo not given in full)
→ .	.	-3%	0	.	.	.	.	.
> COc1ccc(C(=O)N2CCN(c3ncccn3)CC2)cc1
→ 4	-4%	-11%	3	1%	7	3%	.	3%
> CCN(Cc1ccncc1)C(=O)C(CO)c1ccccc1 (stereo not given)
→ -9&2	-6%	-4%&6%	3&3	-6%	12	1%	.	-1%
> COc1ccc(C2c3c(C)nn(-c4ccccc4)c3NC(=O)N2c2ccccc2)cc1 (stereo not given)
→ -5	2%[46.1 µM]	4%	2	-11%	-1	-7%	-3%	3%
> COCCNC(=O)CSc1nc2scc(-c3ccccc3)c2c(=O)[nH]1
→ -8	-9%	-1%	0	?	27	-3%	-3%	2%
> O=C1NC(O)=NC1(c1ccccc1)c1ccccc1
→ 18	.	24%	.	.	.	.	.	.
> CNCCCC12CCC(c3ccccc31)c1ccccc12
→ -4&9&15&3&13	-1%&2%&-1%	1%&-2%&2%&7%&3%	-4&-2&-4&0&-6&0	?	-10&0&-6	1%&-4%&-3%&-4%	0%&0%&1%&-1%	6%&11%&4%
> CC(=O)Nc1cccc(C(=O)O)n1
→ -5	0%	6%	-1	10%	-9	-2%	-1%	7%
> CCCCn1c(N)c(N(CC)C(=O)c2ccc(-c3ccc(Cl)cc3)o2)c(=O)[nH]c1=O
→ 1	0%	.	.	?	?	0%	.	3%
> CC(=O)c1ccc(NC(=O)C(C)OC(=O)C(C)Oc2cccc(C)c2)cc1 (stereo not given)
→ 3	1%[46.1 µM]	-7%	0	-23%	-22	4%	2%	3%
> CCc1cc(C(N)=S)ccn1
→ 3&5	-10%&4%	5%	4&-1&0	-2%&11%	-12&5	-10%&-3%	-1%	-29%
> Brc1cccc(OCCCNC2CCCC2)c1
→ -1	1%	-3%	1	-10%	-1	-25%	0%	-3%
> Cc1ccc(CNC(=O)C(NS(=O)(=O)c2cccc3nsnc23)C(C)C)cc1 (stereo not given)
→ 6	-1%	-9%	.	-18%	-8	-6%	-1%	-3%
> O=c1n(CCCN2CCN(c3cccc(Cl)c3)CC2)nc2ccccn12
→ -13&-6	2%	8%	-2&3&0	?	-3	-6%	4%	9%
> CCOC(=O)[C@H](CCc1ccccc1)N[C@H]1CCc2ccccc2N(CC(=O)O)C1=O
→ .	0%	.	0	.	7	.	.	.
> COC1=CC(=O)CC(C)C12Oc1c(Cl)c(OC)cc(OC)c1C2=O (stereo not given)
→ -3	-1%	4%	-2&2	?	-17	-4%	1%	10%
> CC1=C(/C=C/C(C)=C/C=C/C(C)=C/CO)C(C)(C)CCC1
→ .	-8%	.	1&3	.	12	.	.	.
> Cc1ccc(OCCNC(=O)/C=C/c2ccc([N+](=O)[O-])cc2)cc1C
→ .	5%	.	0	-5%	24	1%	.	3%
> CCC[C@@H]1C[C@@H](C(=O)NC(C(C)Cl)[C@H]2O[C@H](SC)[C@H](O)[C@@H](O)[C@H]2O)N(C)C1 (stereo not given in full)
→ -2	-7%	5%	2&0	?	10	0%	.	-1%
> CC(CCC(=O)O)C1CCC2C3CC[C@H]4CC(O)CC[C@@]4(C)C3CC(O)[C@]12C (stereo not given in full)
→ .	.	.	6	.	.	.	.	.
> Cc1ccccc1-c1nc(CN2CCC(C(=O)NCCCN3CC(C)CC(C)C3)CC2)c(C)o1 (stereo not given)
→ 3	-5%	6%	2	-12%	8	-1%	3%	-2%
> O=C(N[C@@H](CO)[C@@H](O)c1ccc([N+](=O)[O-])cc1)C(Cl)Cl
→ .	.	.	1	.	.	.	.	.
> Nc1ncnc2c1ncn2C1O[C@H](CO)[C@@H](O)[C@@H]1O (stereo not given in full)
→ 1	-1%	.	.	-2%	?	-9%	.	-8%
> Cc1ccc(C)c(N2CCN(C(=O)CCCN3C(=S)NC(C)(C)CC3C)CC2)c1 (stereo not given)
→ -4	-10%	?	0	-3%	-6	0%	1%	1%
> O=C(O)c1ccc(N=C2SCC(=O)N2Cc2ccccc2)cc1
→ -2	-1%	1%	10	16%	20	-4%	9%	1%
> CN(C)CCCOc1nn(Cc2ccccc2)c2ccccc12
→ 46	2%	-1%	1&0	?	20	6%	.	5%
> O=C(/C=C/c1ccco1)Nc1nc(-c2ccccc2)cs1
→ -34	-4%[46.1 µM]	.	-2	-2%	-3	-6%	-3%	-3%
> O=C(NC1CCCC1)c1cc(Cl)ccc1[N+](=O)[O-]
→ -3	9%[46.1 µM]	-5%	-1	1%	14	0%	0%	9%

Whole records, quoted from the list.
Cc1ccccc1-c1nc(CN2CCC(C(=O)NCCCN3CC(C)CC(C)C3)CC2)c(C)o1 (stereo not given) reads TSHR antagonist: 3; TCR activator: -5%; MLL CXXC-DNA inh: 6%; Coupling enz: 2; Chronic BCR inh: -12%; Giardia kill: 8; Tb PFK block: -1%; GALK inhibitor: 3%; A-T KAP1 phos: -2%
Cc1ccc(OCCNC(=O)/C=C/c2ccc([N+](=O)[O-])cc2)cc1C reads TSHR antagonist: .; TCR activator: 5%; MLL CXXC-DNA inh: .; Coupling enz: 0; Chronic BCR inh: -5%; Giardia kill: 24; Tb PFK block: 1%; GALK inhibitor: .; A-T KAP1 phos: 3%

The listing continues:
Values run as follows: TSHR antagonist	TCR activator	MLL CXXC-DNA inh	Coupling enz	Chronic BCR inh	Giardia kill	Tb PFK block	GALK inhibitor	A-T KAP1 phos
> Cn1c(NCCN(CCO)CCCc2ccc([N+](=O)[O-])cc2)cc(=O)n(C)c1=O
→ .	-3%	-4%	.	.	-6	.	.	.
> N#CC1=C(N)Oc2c(oc(CO)cc2=O)C12C(=O)Nc1ccc(Cl)cc12 (stereo not given)
→ -4	.	0%	2	1%	-2	-2%	1%	2%
> Cc1nccn1C[C@@H]1CCc2c(c3ccccc3n2C)C1=O
→ 9	-26%	-1%	0&-4	1%	-2	3%	.	1%
> CN(C)c1nc(N(C)C)nc(N(C)C)n1
→ 24&-33	3%	0%	-1&0&0	0%	30[activator]	-2%	-2%	-5%
> COc1c(Cl)cnn(-c2ccc(C)cc2)c1=O
→ 5	5%	?	-1	?	-11	-1%	1%	10%
> COc1cc2c(O)c3c(c(-c4ccc5c(c4)OCO5)c2cc1OC)C(=O)OC3
→ 5	.	5%	0	?	-5	0%	3%	7%
> CC[N+](CC)(CC)CC[C@](O)(c1ccccc1)C1CCCCC1
→ .	.	-8%[51.4 µM]	-1	.	.	.	.	.
> CCCCCC[C@@H]([C@@H](C)O)n1cnc2c(N)ncnc21
→ -6	-12%	6%	4	.	-14	.	.	.
> CC#C[C@]1(O)CC[C@H]2[C@@H]3CCC4=CC(=O)CCC4=C3[C@@H](c3ccc(N(C)C)cc3)C[C@@]21C
→ -17&-4	0%	5%&3%	-1	?	-5	-2%	-3%	-20%
